PABP polyA inh = PABP poly(A) RNA binding inhibitors, primary screen, biochemical, fluorescence polarization, uHTS | Polyadenylate-binding protein 1 (Homo sapiens), P11940 | inhibition, % at 35 µM | 290,000 compounds, 1% hits;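 active = 50% or more with normal probe brightness, or confirmed in later tests; inconclusive = above 50% with abnormal brightness, or retests that disagree; inactive = below 50% or failed in later tests; about a fifth of its hits are not listed in these tables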;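 note: calls also rest on retests at 20 µM and on dose response follow-up; controls were probe without protein and protein plus probe with vehicle; some compounds called inactive have numbers as strong as hits; many hits fall short of the cut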
Target sequence (P11940 whole entry, looked up): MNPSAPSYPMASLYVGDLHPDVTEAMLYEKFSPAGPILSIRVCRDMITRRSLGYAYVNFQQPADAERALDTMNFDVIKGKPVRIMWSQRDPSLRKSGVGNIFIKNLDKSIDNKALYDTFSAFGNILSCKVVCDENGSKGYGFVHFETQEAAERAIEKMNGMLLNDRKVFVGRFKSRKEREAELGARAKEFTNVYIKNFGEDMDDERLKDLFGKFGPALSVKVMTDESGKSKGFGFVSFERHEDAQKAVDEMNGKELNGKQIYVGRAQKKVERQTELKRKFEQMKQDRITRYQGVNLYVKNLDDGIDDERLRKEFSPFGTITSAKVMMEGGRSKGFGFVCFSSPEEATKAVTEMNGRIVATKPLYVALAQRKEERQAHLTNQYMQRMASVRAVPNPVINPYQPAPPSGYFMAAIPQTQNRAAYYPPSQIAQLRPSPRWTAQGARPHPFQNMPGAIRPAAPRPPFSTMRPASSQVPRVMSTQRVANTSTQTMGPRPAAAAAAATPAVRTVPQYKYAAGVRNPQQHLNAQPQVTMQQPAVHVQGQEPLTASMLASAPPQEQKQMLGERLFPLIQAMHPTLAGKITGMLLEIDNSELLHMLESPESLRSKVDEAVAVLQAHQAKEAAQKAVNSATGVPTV
Yeast UUG start = modulators of yeast start codon fidelity, primary screen, whole organism, S. cerevisiae, single point, plate reader; S. cerevisiae UUG-firefly luciferase reporter, luminescence/redox ratio; activity score, % at 18.7 µM; 350,000 compounds, 0.13% hits;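 active = replicate mean at a twofold rise or more, about +100% in these data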;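 note: firefly luciferase made from a UUG start codon reports start codon fidelity; reporter light over untreated wells divided by growth signal over untreated wells; some hits fall short of that in this replicate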
CSC inhib = cancer stem cell viability inhibitors, primary screen, luminescence | inhibition, % at 7.5 µM | 300,000 compounds, 1.1% hits | AID 2717, 2010 | cancer stem cell-like cells viability;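 active = mean at 75% or more and at least half the replicates too; inconclusive = mean and replicates disagree; tested in HMLE shEcad cells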;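 note: 0% = median of negative and 100% = median of positive control wells; the first replicate is given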
Env fusion inh = inhibitors of HIV-1 Env-driven cell-cell fusion, primary screen, HeLa-JRFL effector, CEM21 target cells, luciferase; inhibition, % at 12.3 µM; 360,000 compounds, 1.1% hits;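 active = mean replicate inhibition score of at least 50 and every replicate individually at or above 50; inconclusive = only one of the two criteria met; inactive = mean below 50 and not all replicates reaching 50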;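 note: 0% = plate neutral controls and 100% = maraviroc near 300 nM; one replicate is shown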
MT1-MMP act inh = blockers of MT1-MMP proenzyme processing, primary screen, HT1080 RFP-PRO-GFP cells, GFP/RFP fluorescence | GFP/RFP ratio change, % at 20 µM | GFP/RFP ratio fluorescence, overnight; percent of plate control window, DMSO zero | 360,000 compounds, 0.061% hits | Matrix metalloproteinase-14 (Homo sapiens), P50281;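 active = GFP/RFP ratio change of at least 30% with cell ATP level not reduced by more than half and red fluorescence within 50% of control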; note: strong numbers were not always called active
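Read-out: GFP/RFP fluorescence ratio; Test system: RFP-PRO-GFP reporter HT1080 cells; Compound dosing: single-point 20 µM compound, 1% DMSO; Times: overnight compound exposure at 37 °C.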
eIF4H inh = human eIF4H binding inhibitors, primary screen, translation initiation inhibitor project, biochemical, uHTS, fluorescence polarization. Eukaryotic translation initiation factor 4H (Homo sapiens), Q15056. eIF4H fluorescence polarization binding assay. inhibition, % at 35 µM. 290,000 compounds, 0.94% hits;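 active = 50% or more with normal probe brightness, or confirmed in later tests; inconclusive = above 50% with abnormal brightness, or retests that disagree; inactive = below 50% or failed in later tests; about a fifth of its hits are not listed in these tables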;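 note: calls also rest on retests at 20 µM and on dose response follow-up; 0% = protein and probe with vehicle and 100% = probe without protein; strong numbers were not always called active; many hits fall short of the cut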
Rce1 inh = yeast Rce1p protease inhibitors, primary screen, biochemical, fluorescence, cell-free homogeneous | calls only | AID 2563, 2010 | yeast membranes, quenched prenylated peptide cleavage fluorescence | 290,000 compounds, 0.27% hits;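 active = fall in fluorescence gain of 50% or more versus controls, with final raw signal at or below 3038400; inconclusive = same 50% fall but final raw signal above 3038400; inactive = fall in fluorescence gain under 50%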;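 note: plate controls were neutral control wells for no effect and wells lacking membranes for full effect; tested at 10 µM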
Target sequence (Q03530 whole entry, looked up): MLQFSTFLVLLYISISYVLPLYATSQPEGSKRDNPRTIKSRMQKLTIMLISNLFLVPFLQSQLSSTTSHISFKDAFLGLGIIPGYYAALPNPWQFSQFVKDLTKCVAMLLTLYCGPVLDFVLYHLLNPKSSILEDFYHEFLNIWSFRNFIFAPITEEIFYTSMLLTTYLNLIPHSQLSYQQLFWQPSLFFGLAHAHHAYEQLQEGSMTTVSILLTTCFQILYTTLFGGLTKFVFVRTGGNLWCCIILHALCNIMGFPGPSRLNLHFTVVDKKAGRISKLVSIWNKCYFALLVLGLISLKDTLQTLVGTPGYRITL
eIF4H inh retest = further read-out of eIF4H inh, marked with its call; inhibition, %; compound at 20 µM; confirmation average;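 mean of two retest wells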
PABP polyA inh retest = also measured in PABP polyA inh; calls as there; inhibition, %; compound at 20 µM; confirmation repeats;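 mean of two retest wells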
MT1-MMP act inh RFP = second read-out of MT1-MMP act inh, no call of its own (marks repeat the call); RFP signal change, %; measured here: RFP expression control read;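 0 = vehicle wells; hits needed this value within 50% of zero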
* hit, by the source's call; i = inactive; ? = inconclusive; . = not tested or not shown; & = joins results of further samples. Only part of the results is shown; the hit share may differ from the screen's.

SMILES | PABP polyA inh | Yeast UUG start | CSC inhib | Env fusion inh | MT1-MMP act inh | MT1-MMP act inh RFP | eIF4H inh | Rce1 inh | others
CCCc1nc(SCC(=O)NNC(=O)c2ccc(OC)cc2)c2ccccc2n1 | 3 | . | -2 | -7 | 0 | 1 | -2 | i
Nc1nc(CCl)nc(Nc2ccc3ccccc3c2)n1 | -3 | . | . | -33 | -2 | -9 | -4 | i
Cc1ccc(S(=O)(=O)CC(c2ccccc2)N2CCCCC2)cc1 (centres undefined) | -3 | . | . | 5 | 1 | 7 | -12 | i
c1ccc(-n2c(SCC3CCCCO3)nnc2-c2cnccn2)cc1 (centres undefined) | 5 | -2 | -5 | . | 5 | 5 | -1 | i
O=C(O)c1ccc2c(c1)C(=O)N(C(Cc1ccc(O)cc1)C(=O)O)C2=O (centres undefined) | 4 | -20 | -10 | -8 | 1 | 6 | 2 | i
O=C(Nc1cccnc1)NC1CCCCC1 | 14 | 1 | -13 | 4 | -2 | 2 | 0 | i
O=C(NC1CCCN(Cc2ccc(Cl)cc2)C1)c1ccnc(Cl)c1 (centres undefined) | 0 | 0 | -4 | -7 | 7 | -4 | -5 | i
COCCNc1nc(NCc2ccc(C(C)C)cc2)c2sccc2n1 | . | -38 | . | 38 | 0 | -24 | . | .
O=C(Nc1ccc(Cl)c(Cl)c1)Nc1cc(C(=O)NC2CC2)ccc1Cl | -5 | . | 22 | . | . | . | 1 | i
Cc1cccc(C(=O)NNC(=O)C(=O)NC(C)(C)C)c1 | 3 | -10 | 1 | -40 | 0 | 1 | 0 | i
O=C(O)c1c2c(nc3ccc(F)cc13)CCC2 | -10 | 0 | 2 | . | 6 | 7 | 82 | i | eIF4H inh retest=6;PABP polyA inh retest=2
COc1cc2nc(-c3ccccc3)nc(N3CCCC3)c2cc1OC | -2 | 1 | . | . | . | . | 2 | i
Cc1ccc2nc(C(=O)O)c(C(=O)O)nc2c1 | 20 | -38 | 13 | 8 | 2 | 2 | 3 | i
NS(=O)(=O)c1ccc(NC(CNS(=O)(=O)c2ccccc2)c2ccccc2)cc1 (centres undefined) | 8 | . | -8 | 17 | 0 | -3 | -1 | i
CC(C)(C)c1cccc(OCCCSc2ncccn2)c1 | -4 | -11 | 2 | -38 | 0 | -1 | 12 | i
O=C(CCCOc1ccc(Cl)cc1Cl)NNC(=O)C1CCC1 | 1 | -13 | -2 | 6 | 1 | -2 | -1 | i
COc1ccc(/C=C/C(=O)c2oc3ccc(F)cc3c2C)cc1 | -12 | -16 | -1 | . | 0 | -2 | -9 | i
CCCn1c(O)c2ccc(C(=O)N=NC(=O)c3cccnc3)cc2c1O | 8 | -16 | 15 | . | 2 | 4 | -5 | i
COCCn1c(SCC(=O)N2CCN(c3ccccc3)CC2)nc2c(c1=O)SC(C)C2 (centres undefined) | 18 | 4 | 3 | . | 4 | 5 | -4 | i
CC(C(=O)Nc1cccc([N+](=O)[O-])c1)n1nnc2ccccc21 (centres undefined) | -2 | -27 | -8 | 6 | -1 | -3 | -5 | i
COc1cccc(C(=O)O[C@H]2[C@H](C)NS(=O)(=O)[C@H]3C[C@@H]4C=C[C@]23O4)c1 | . | -2 | 0 | 3 | 0 | 3 | . | .
CCCCCOc1ccc(C2NC(=O)NC2=O)cc1 (centres undefined) | -6 | 9 | -8 | -9 | -1 | 2 | -12 | i
CCCN(CC(=O)Nc1ccccc1C)C(=O)COC(=O)c1cnc(C)cn1 | . | -11 | . | 4 | 1 | 0 | . | .
[N-]=[N+]=NCC/C=C\C1NS(=O)(=O)OCC1O (centres undefined) | 7 | -14 | 3 | -2 | 1 | 3 | 0 | i
C[C@H](CO)N1C[C@H](C)[C@@H](CN(C)C(=O)OCc2ccccc2)OCc2cn(nn2)CCCC1=O | . | -1&3 | . | -183 | 14 | 0 | . | .
The list continues:
SMILES | PABP polyA inh | Yeast UUG start | CSC inhib | Env fusion inh | MT1-MMP act inh | MT1-MMP act inh RFP | eIF4H inh | Rce1 inh | others
C=CCOc1ccc(C2C(C(=O)c3ccco3)=C(O)C(=O)N2Cc2cccnc2)cc1 (centres undefined) | 11 | . | -13 | -12 | -5 | -10 | -2 | i
Cc1ccc(S(=O)(=O)NC(C(=O)Oc2cc3oc(=O)cc(C)c3cc2Cl)C(C)C)cc1 (centres undefined) | -5 | 1 | 17 | -11 | -4 | -4 | -11 | i
O=C(NCc1cccs1)c1nc2c(nnn2Cc2ccccc2Cl)c(=O)[nH]1 | -2 | -13 | 111* | 111* | -31 | -38 | 4 | i
CN(C(=O)COC(=O)c1cc(=O)[nH]c2ccccc12)C1CCCCC1 | . | -10 | . | -9 | 1 | 3 | . | .
CN(Cc1ccccc1)S(=O)(=O)c1ccc(NS(=O)(=O)Cc2ccccc2)cc1 | -5 | -10 | 11 | -90 | 1 | -6 | 1 | i
Cc1cc(N2CCN(C(=O)c3ccco3)CC2)n2nc(C)c(-c3ccccc3)c2n1 | 4 | -11 | . | -5 | 4 | 0 | -7 | i
COCCNC(=S)N1CCC(c2nc(-c3ccc(F)cc3)no2)CC1 | 4 | -23 | 18 | -7 | 4 | 2 | -3 | i
Cc1nnc(NC(=O)CSc2nnc3ncccn23)s1 | 11 | -9 | -5 | -14 | 2 | 4 | -1 | i
COc1ccccc1N(CC(=O)NC1CC2CCC1C2)S(=O)(=O)c1ccc(C)cc1 (centres undefined) | 6 | -17 | -14 | 7 | 4 | -4 | -4 | i
O=S(=O)(NCCCSc1ccccc1)c1ccccc1F | -2 | . | 8 | -2 | -2 | 2 | -9 | i
COCCNS(=O)(=O)c1ccccc1 | 8 | -12 | -10 | . | 7 | 1 | 8 | i
COc1cc(NC(=O)CCNS(=O)(=O)c2ccc3c(c2)CCC(=O)N3)cc(OC)c1 | 6 | 9 | -11 | 17 | 1 | -1 | 0 | i
CN(CCO)C1=NS(=O)(=O)c2cc([N+](=O)[O-])ccc21 | 1 | -1 | -16 | -14 | -9 | -3 | -3 | i
C#CCN(N(C)c1ncc(C(F)(F)F)cc1Cl)S(=O)(=O)c1ccc2ccccc2c1 | 22 | -10 | -8 | 1 | -17 | -2 | 2 | i
Cc1ccccc1Cn1c(=N)n(CC(O)c2ccco2)c2ccccc21 (centres undefined) | 1 | -14 | -7 | . | 3 | 2 | 2 | i
Cn1c(CCCOc2ccc(Cl)cc2Cl)nnc1SCC(=O)Nc1ccc(F)c(Cl)c1 | -3 | -14 | -5 | 22 | 5 | -1 | -4 | i
CC(C)(C)C1(c2ccccc2)NC(=O)N(CC(=O)N2CCOCC2)C1=O (centres undefined) | 1 | -14 | 23 | -15 | 0 | 1 | -3 | i
CCn1c(=O)c2sccc2n(CC(=O)NCCC2=CCCCC2)c1=O | 16 | -9 | -11 | 15 | -3 | 0 | -12 | .
COc1ccc(NC(=O)CSc2ccc3nnc(-c4cccnc4)n3n2)cc1 | -7 | 2 | -19 | -13 | -3 | 0 | -1 | i
O=C(Nc1ccc([N+](=O)[O-])cc1)Nc1nc(-c2ccc(Cl)s2)cs1 | 8 | . | 97* | ? | -21 | -34 | 6 | i
O=c1[nH]c(=S)[nH]cc1Oc1ccc(Cl)cc1Cl | 10 | -20 | . | 3 | 1 | -2 | 10 | i
Cc1ccc(S(=O)(=O)NC(=O)C2(C)CCN2C(=O)C2(c3ccc(Cl)cc3)CC2)nc1 (centres undefined) | . | 12 | . | -5 | -7 | 3 | . | .
Cc1ccc(C(=O)Nc2ccc(C(=O)N3CCCCC3)cc2)cc1 | 1 | . | . | -4 | -1 | -2 | -14 | i
CCc1noc(C)c1C(=O)N1CC(C)SC1=Nc1ccc(Cl)cc1 (centres undefined) | . | -24 | . | 15 | 4 | 1 | . | .
COC(=O)C(C)Sc1ccc2nnc(CCNS(=O)(=O)c3ccccc3)n2n1 (centres undefined) | -1 | . | . | 3 | -1 | 2 | -1 | i
Additional results.
SMILES | PABP polyA inh | Yeast UUG start | CSC inhib | Env fusion inh | MT1-MMP act inh | MT1-MMP act inh RFP | eIF4H inh | Rce1 inh | others
Cc1cccc(NC(=O)COC(=O)CCc2ccc(S(=O)(=O)N3CCOCC3)cc2)c1C | 4 | 6 | -13 | 8 | -1 | 5 | 4 | i
COc1ccc(-c2ccnc3ncnn23)cc1 | -7 | . | 2 | -7 | 3 | 3 | -3 | i
O=C1c2ccccc2NC(c2cc(Cl)cc(Cl)c2O)N1Cc1cccnc1 (centres undefined) | 28 | -7 | -8 | -106 | -2 | 1 | 0 | i
COCCNC(=O)C(c1ccc(C)o1)N(CCOC)C(=O)Cn1nnc2ccccc21 (centres undefined) | -5 | . | 5 | -87 | 2 | 5 | -3 | i
CCC1C(=O)n2nc(-c3ccccc3)cc2N=C1C (centres undefined) | -9 | . | -10 | . | -15 | 4 | -8 | i
O=C(Nc1cccc(Br)c1)c1cc(=O)c2ccccc2o1 | . | -18 | 5 | -2 | 5 | 1 | . | i
CCCS(=O)(=O)NC(=O)C1(C)CCN(C(=O)c2ccc(C#N)cc2)C1 (centres undefined) | . | -9 | . | 25 | -3 | 2 | . | .
Cc1ccc(C(=O)OCC(=O)Nc2cc(C(C)(C)C)nn2-c2ccccc2)c(O)c1 | . | -20 | -10 | 1 | 6 | -5 | . | i
Cc1ccc(OCC(=O)OC(C)C(=O)NC2CCCCC2C)cc1C (centres undefined) | . | -7 | -3 | . | -6 | 3 | . | .
C/C=C/C1=CC(=O)C[C@H](c2ccc3c(c2)OCO3)C1 | . | -17 | -6 | 11 | -1 | -1 | . | .
Cn1c(SCC(=O)N2CCCCC2)nc2cccnc21 | 0 | -20 | 4 | 10 | 0 | -1 | -12 | i
COc1ccc(N2CCN(Cc3nc4sc(C)c(C)c4c(=O)[nH]3)CC2)cc1 | 6 | . | -11 | 2 | -8 | -1 | 3 | i
O=C(Nc1ccnn1C1CCN(Cc2ccc(CO)o2)CC1)c1cccc(F)c1 | . | 9 | . | 20 | 0 | 3 | . | .
O=[N+]([O-])c1cn(Cc2ccccc2)cn1 | 0 | . | 3 | . | 6 | 6 | -7 | i
Cc1cc(C)cc(C(=O)NCC(=O)OCC(=O)NCC(F)(F)F)c1 | -4 | . | -11 | 0 | -3 | 0 | 9 | i
O=C(Nc1ccc(Cl)cn1)c1ccc(-c2cc(Cl)ccc2Cl)o1 | -9 | -12 | 19 | -18 | -7 | -3 | -3 | i
Cc1ccc(Nc2cc(C)nn2-c2nc(C)cc(C)n2)cc1 | -1 | -5 | 16 | -49 | -8 | -16 | -14 | i
O=c1oc2ccccc2nc1/C=C(\O)c1ccccc1 | 4 | -10 | -12 | 3 | 1 | 4 | 9 | i
Cc1cc(C)n(-c2ccn(Cc3ccc(Cl)cc3Cl)c(=O)n2)n1 | -3 | -16 | 4 | -14 | 5 | -5 | 3 | i

Assay outcomes: PubChem BioAssay, several laboratories
